Assay outcomes: PubChem BioAssay, Broad Institute
Hedgehog inh: Sonic Hedgehog pathway inhibition | AID 2313 | hit rate 2.1% among 22,000 | Shh-LIGHT2 Gli-luciferase reporter, 30 h | inhibition, % (no concentration beside the values);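 active means replicate mean of 65% or more; inconclusive means mean lower but half the replicates past it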;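 further: pathway switched on by Shh-conditioned medium diluted 1 in 25 in low serum; 100 nL library stock added to about 40 µL; 0% = median of neutral wells and 100% = positive control level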
MITF inh: inhibitors of MITF | inhibition, % (test concentration not listed) | TRPM1 promoter luciferase, luminescence, 24 h | hit rate 0.28% among 37,000;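 active means most replicates at 85% or more, or half of them and the mean; inconclusive means half reach 85% but not the mean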;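 further: human melanocyte line stably carrying TRPM1 promoter luciferase reporter; 0% = vehicle wells and 100% = a positive control; the first replicate is given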
YB-1 expr inh: YB-1 expression inhibition. hit rate 0.37% among 30,000. U2OS, qRT-PCR YB-1 vs CDIP delta delta Cp, 16 h; active compounds read high; zero = DMSO, each unit about twofold. delta delta Cp (YB-1 minus CDIP) (concentration not given with the values);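 active means delta delta Cp rounded down to an integer at or above 3, about 3 SD of DMSO wells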;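 further: higher means less YB-1 transcript or more CDIP transcript relative to DMSO; stock transfer was 100 nL into about 100 µL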
PD-1 reversal: activators reversing PD-1 mediated T-cell inhibition; primary human CD4 T cells, PD-L1 beads, CellTiter-Glo 96 h; activation, % (concentration not given with the values); 29,000 tested, under 10 active; AID 2316;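 active means replicate mean of 50% or more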;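 further: 0% = median vehicle wells and 100% = positive control; 100 nL library stock added to about 50 µL; numbers are from one replicate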
* = called active by the depositor; ? = inconclusive; . = not tested or not shown; & = joins results of further samples.

SMILES	Hedgehog inh	MITF inh	YB-1 expr inh	PD-1 reversal
C[C@@H]1CN([C@@H](C)CO)C(=O)c2cc(NC(=O)Nc3ccc4c(c3)OCO4)ccc2O[C@H]1CN(C)C(=O)Nc1ccc(F)cc1	13	-1	-0.39	-1.3
Cc1ccc(S(=O)(=O)N(C)C[C@@H]2Oc3c(NC(=O)C4CC4)cccc3C(=O)N([C@@H](C)CO)C[C@@H]2C)cc1	-48	-10	-0.68	1.5
Cc1ccc(NC(=O)CSc2nnc(-c3ccc([N+](=O)[O-])cc3)n2-c2ccccc2)cc1C	.	29	.	-6.6
C[C@@H]1CN([C@H](C)CO)C(=O)Cc2cc(NC(=O)Cc3cn(C)c4ccccc34)ccc2O[C@@H]1CN(C)C	-2	3	-0.11	1.8
C[C@H](CO)N1C[C@H](C)[C@@H](CN(C)S(=O)(=O)c2ccc(Cl)cc2)Oc2c(NS(=O)(=O)c3ccc(Cl)cc3)cccc2C1=O	13	6	0.71	.
CC(C)NC(=O)Nc1ccc2c(c1)CC(=O)N([C@@H](C)CO)C[C@@H](C)[C@@H](CN(C)CC1CCCCC1)O2	-38	-22	-0.22	.
C[C@@H]1CN([C@@H](C)CO)C(=O)Cc2cc(NS(=O)(=O)c3ccc(F)cc3)ccc2O[C@@H]1CN(C)S(=O)(=O)c1cn(C)cn1	4	-20	0.45	0.6
C[C@H]1CN([C@@H](C)CO)C(=O)c2cccc(NC(=O)c3ccncc3)c2O[C@H]1CN(C)S(=O)(=O)c1ccccc1	39	5	-0.26	-1.2
C[C@H](CO)N1C[C@H](C)[C@H](CN(C)S(=O)(=O)c2cn(C)cn2)Oc2ccc(NC(=O)CCCN(C)C)cc2C1=O	.	-4	-0.23	-1.3
O=C(CC[n+]1ccc(/C=N/O)cc1)NCc1ccccc1	.	11	-0.015	1.4
COc1ccc(NC(=O)Nc2cccc3c2O[C@@H](CN(C)S(=O)(=O)c2cccs2)[C@H](C)CN([C@@H](C)CO)C3=O)cc1	-24	6	0.041	1.2
CNC[C@@H]1Oc2ccc(NS(=O)(=O)c3ccc(F)cc3)cc2CC(=O)N([C@H](C)CO)C[C@H]1C	14	-3	-0.28	-0.3
Cc1ccc(S(=O)(=O)N(C)C[C@H]2Oc3ccc(NC(=O)NC(C)C)cc3CC(=O)N([C@@H](C)CO)C[C@H]2C)cc1	-31	-23	-0.26	-1.1
COc1ccc(S(=O)(=O)Nc2ccc3c(c2)CC(=O)N([C@H](C)CO)C[C@H](C)[C@H](CN(C)Cc2ccc(Oc4ccccc4)cc2)O3)cc1	-34	0	0.16	.
C[C@@H]1CN([C@H](C)CO)C(=O)Cc2cc(NC(=O)Cc3ccccc3)ccc2O[C@@H]1CN(C)Cc1ccc2c(c1)OCO2	7	-7	-0.0055	-0.2
C[C@@H]1CN([C@@H](C)CO)C(=O)c2cccc(NS(=O)(=O)c3cn(C)cn3)c2O[C@H]1CN(C)CC1CCCCC1	-146	2	0.54	0.5
CCc1ccccc1NC(=O)CSc1nnc(-c2ccccc2)n1C	.	2	.	4.0
C[C@H]1CN([C@@H](C)CO)C(=O)c2cccc(NC(=O)c3ccc(-c4nccs4)cc3)c2O[C@H]1CN(C)Cc1ccccc1	-73	-15	-0.49	.
C[C@@H]1CN([C@H](C)CO)C(=O)c2cc(NS(=O)(=O)c3cccs3)ccc2O[C@H]1CN(C)Cc1ccc(Oc2ccccc2)cc1	.	3	-0.17	5.4
O=C(CSc1ccc(F)cc1Cl)C12CC3CC(CC(C3)C1)C2	-7	-9	7.2*	-0.8
O=C(O)CSc1c(-c2cccs2)[nH]c2ccccc12	7	6	-0.3	0.5
CCOc1ccc(C2(C)CC(C)(C)Nc3ccccc32)cc1 (configuration not stated)	1	5	-0.3	0.5
O=C(CSc1nnc(-c2cccc(Cl)c2)n1-c1ccccc1)Nc1ccccc1-c1ccccc1	.	61	.	-4.3
Cc1ccc(S(=O)(=O)Nc2ccc3c(c2)CC(=O)N([C@@H](C)CO)C[C@H](C)[C@@H](CN(C)S(=O)(=O)c2ccccc2)O3)cc1	-50	-1	0.12	-0.2
C[C@@H]1CN([C@H](C)CO)C(=O)Cc2cc(NC(=O)Nc3ccc(C(F)(F)F)cc3)ccc2O[C@@H]1CN(C)Cc1ccc(C(=O)Nc2ccccc2N)cc1	.	14	-0.19	-0.1
C[C@H]1CN([C@@H](C)CO)C(=O)c2cccc(NC(=O)c3cnccn3)c2O[C@@H]1CN(C)S(=O)(=O)c1ccccc1	-18	-20	-0.064	1.9
Cc1ccc(NC(=O)N(C2=NCC(C)(C)S2)c2ccc(F)c(Cl)c2)cc1	-15	-54	-0.013	-0.7
C[C@@H]1CN([C@H](C)CO)C(=O)c2cccc(NS(=O)(=O)c3ccccc3)c2O[C@H]1CN(C)S(=O)(=O)c1cccs1	-5	2	0.22	0.4
Cc1ccc(S(=O)(=O)Nc2cccc3c2O[C@@H](CN(C)Cc2ccc(Cl)c(Cl)c2)[C@H](C)CN([C@H](C)CO)C3=O)cc1	35	0	-0.11	.
Cc1ccc(S(=O)(=O)N(C)C[C@@H]2Oc3ccc(NC(=O)Nc4ccccc4)cc3CC(=O)N([C@@H](C)CO)C[C@@H]2C)cc1	-12	35	-0.11	.
C[C@@H]1CCCCO[C@@H](CN(C)C(=O)c2ccncc2)[C@@H](C)CN([C@H](C)CO)C(=O)c2cc(NS(=O)(=O)c3ccccc3)ccc2O1	-23	-5	-0.063	.
O=C(NC1=NCCS1)c1cc2ccccc2o1	-111	72	-0.018	1.0
CCCc1c(Cc2c(F)cccc2Cl)c(=O)oc2cc(O)ccc12	55	55	-0.46	-4.0
CNC[C@H]1Oc2ccc(NS(=O)(=O)c3ccc(F)cc3)cc2C(=O)N([C@H](C)CO)C[C@H]1C	-12	-8	0.14	1.3
Cc1ccc(S(=O)(=O)N(CC(=O)N(C)C)c2cccc([N+](=O)[O-])c2)cc1	.	15	.	1.8
C[C@H]1CN([C@@H](C)CO)C(=O)Cc2cc(NC(=O)c3ccncc3)ccc2O[C@@H]1CN(C)S(=O)(=O)c1cn(C)cn1	-15	7	-0.091	.

3 entries from above, arranged by formula weight, rising:
SMILES	Hedgehog inh	MITF inh	YB-1 expr inh	PD-1 reversal
O=C(NC1=NCCS1)c1cc2ccccc2o1	-111	72	-0.018	1.0
Cc1ccc(NC(=O)N(C2=NCC(C)(C)S2)c2ccc(F)c(Cl)c2)cc1	-15	-54	-0.013	-0.7
C[C@@H]1CN([C@H](C)CO)C(=O)Cc2cc(NC(=O)Nc3ccc(C(F)(F)F)cc3)ccc2O[C@@H]1CN(C)Cc1ccc(C(=O)Nc2ccccc2N)cc1	.	14	-0.19	-0.1

More entries follow:
SMILES	Hedgehog inh	MITF inh	YB-1 expr inh	PD-1 reversal
CC(=NC1CC1)c1c(C)[nH]n(-c2nc3ccccc3s2)c1=O	.	53	-0.24	-1.1
COc1ccc(C2C3CCc4ccccc4C3=NN2C(=O)c2cccs2)cc1 (configuration not stated)	23	7	-0.49	-2.0
COc1ccc(CN(C)C[C@H]2Oc3ccc(NC(=O)CCN4CCOCC4)cc3C(=O)N([C@H](C)CO)C[C@H]2C)cc1	-29	4	-0.27	0.1
CNC[C@@H]1Oc2ccc(NC(=O)C3CC3)cc2CC(=O)N([C@H](C)CO)C[C@@H]1C	-19	-3	-0.004	.
C[C@H](CO)N1C[C@H](C)[C@H](CN(C)C(=O)Nc2ccc(F)cc2)Oc2ccc(NS(=O)(=O)c3ccc(Cl)cc3)cc2C1=O	.	-8	-0.32	-7.9
CCn1c(SCc2nc3ccccc3[nH]2)nc2sc(C)c(C)c2c1=O	.	18	.	-2.0
C[C@H]1CN([C@@H](C)CO)C(=O)c2cc(NS(=O)(=O)c3cn(C)cn3)ccc2O[C@@H]1CN(C)Cc1ccc(C(F)(F)F)cc1	.	4	-0.13	.
C[C@@H]1CN([C@@H](C)CO)C(=O)c2cc(NC(=O)Cc3ccccc3)ccc2O[C@@H]1CN(C)C	3	-3	0.26	1.1
C[C@H]1CN([C@@H](C)CO)C(=O)c2cc(NC(=O)Cc3ccccc3)ccc2O[C@H]1CN(C)S(=O)(=O)c1cn(C)cn1	1	3	0.098	1.3
O=C1C(=O)N(CCN2CCOCC2)C(c2ccc(Cl)cc2)C1C(=O)c1cccs1 (configuration not stated)	.	-17	.	1.1
C[C@H](CO)N1C[C@H](C)[C@@H](CN(C)Cc2ccc(C(=O)O)cc2)Oc2ccc(NC(=O)NC3CCCCC3)cc2C1=O	17	-9	-0.13	0.0
CN1CCN(Cc2c(C#N)c3ccccc3n2C)CC1	-5	-11	-0.59	-0.4
S=C(Nc1ccc2[nH]ccc2c1)NC1CCCCC1	-21	-12	-0.13	-1.1
COc1ccc(CCN(C)CCCC(C#N)(c2cc(OC)c(OC)c(OC)c2)C(C)C)cc1OC (configuration not stated)	?	-5&-10	-0.037&-0.57	0.6
C[C@@H]1CN([C@H](C)CO)C(=O)Cc2cc(NC(=O)CCC(F)(F)F)ccc2O[C@H]1CN(C)C(=O)Nc1cccc2ccccc12	-13	-2	0.086	.
S=C(c1ccccc1)N1CCN(Cc2ccccc2)CC1	16	18	-0.97	0.5
C[C@H](CO)N1C[C@H](C)[C@H](CN(C)C(=O)Nc2cccc3ccccc23)Oc2c(NS(=O)(=O)c3ccc(F)cc3)cccc2C1=O	8	29	0.33	-1.4
Cc1noc(C)c1S(=O)(=O)Nc1cccc2c1O[C@@H](CN(C)Cc1ccc(-c3ccccc3)cc1)[C@@H](C)CN([C@H](C)CO)C2=O	-2	-7	-0.65	-1.4
CC(Sc1ncn[nH]1)C(=O)Nc1ccc(Cl)cc1 (configuration not stated)	.	2	.	1.9
COc1ccc(NC(=O)Nc2cccc3c2O[C@H](CN(C)S(=O)(=O)c2ccc(F)cc2)[C@H](C)CN([C@H](C)CO)C3=O)cc1	0	-44	-0.58	.
CC(=O)NC(Nc1ccccc1)(C(F)(F)F)C(F)(F)F	12	18	-0.16	1.0
COc1ccc(S(=O)(=O)N(C)C[C@@H]2Oc3ccc(NS(=O)(=O)c4c(C)noc4C)cc3CC(=O)N([C@H](C)CO)C[C@@H]2C)cc1	33	-1	0.14	.
CS(=O)(=O)c1ccc2nc(NC(=O)C3CCCO3)sc2c1 (configuration not stated)	-52	-18	0.13	0.4
Cc1cc(=O)[nH]c(SCCCOc2ccc(F)cc2)n1	.	-25	.	1.6
CNC[C@H]1Oc2c(NS(C)(=O)=O)cccc2C(=O)N([C@H](C)CO)C[C@H]1C	13	-3	-0.18	.
C[C@H]1CN([C@@H](C)CO)C(=O)Cc2cc(N(C)C)ccc2O[C@H]1CN(C)Cc1ccc(-c2ccccc2)cc1	-25	-7	-0.23	-1.5
COc1ccc(NC(=O)CSc2nc3scc(C)c3c(=O)[nH]2)cc1	.	-14	.	0.7
Cc1noc(C)c1NC(=O)N(C)C[C@@H]1Oc2ccc(NC(=O)NC3CCCCC3)cc2C(=O)N([C@H](C)CO)C[C@H]1C	-25	-1	-0.35	1.6
C[C@H](CO)N1C[C@H](C)[C@@H](CN(C)CC2CC2)Oc2c(NS(=O)(=O)c3cn(C)cn3)cccc2C1=O	-63	-10	0.11	.
CCOC(=O)C1=C(C)Nc2ncnn2C1c1ccccc1[N+](=O)[O-] (configuration not stated)	.	-4	.	-1.8
Cc1noc(C)c1S(=O)(=O)N(C)C[C@H]1Oc2ccc(NC(=O)CCC(F)(F)F)cc2CC(=O)N([C@@H](C)CO)C[C@H]1C	-15	-5	-0.014	-1.6
C[C@@H]1CN([C@@H](C)CO)C(=O)c2cccc(NC(=O)Nc3ccc4c(c3)OCO4)c2O[C@H]1CN(C)CC1CC1	-44	-26	0.27	-0.2
COc1ccc(S(=O)(=O)Nc2ccc3c(c2)C(=O)N([C@H](C)CO)C[C@H](C)[C@H](CN(C)Cc2ccc(Oc4ccccc4)cc2)O3)cc1	19	-1	-0.34	1.5
CC(C)NC(=O)N(C)C[C@H]1Oc2ccc(NC(=O)Cn3cnnn3)cc2CC(=O)N([C@@H](C)CO)C[C@@H]1C	-39	-14	0.043	0.7
CCOC(=O)c1c(NC(=O)c2nc3nc(C)cc(C(F)F)n3n2)sc2c1CCCC2	.	-23	.	6.2
CC(=O)NCCc1nc2cc(NC(=O)c3ccccc3)ccc2n1C	.	-52	.	2.4
Cc1noc(C)c1NC(=O)N(C)C[C@H]1Oc2ccc(NC(=O)Cc3ccccc3)cc2C(=O)N([C@H](C)CO)C[C@H]1C	13	-1	-0.018	1.2

By substructure: the entries above containing a nitro group on carbon
SMILES	Hedgehog inh	MITF inh	YB-1 expr inh	PD-1 reversal
Cc1ccc(NC(=O)CSc2nnc(-c3ccc([N+](=O)[O-])cc3)n2-c2ccccc2)cc1C	.	29	.	-6.6
Cc1ccc(S(=O)(=O)N(CC(=O)N(C)C)c2cccc([N+](=O)[O-])c2)cc1	.	15	.	1.8
CCOC(=O)C1=C(C)Nc2ncnn2C1c1ccccc1[N+](=O)[O-] (configuration not stated)	.	-4	.	-1.8

This is a subset; rates above refer to the full screens.
